Screening results from PubChem.
Vaccinia Venus: qHTS for Stage-Specific Inhibitors of Vaccinia Orthopoxvirus: Venus Reporter Primary qHTS; 0.46% of 330,000 active; Potency, µM (series often up to 36.5 µM), for the others: at the top dose activity change, negative = inhibition, usual class: inhibitors; Vaccinia virus Venus reporter expression, fluorescence; active means well fitted inhibition curve with a large enough effect; inconclusive means small, poorly fitted or top-dose-only effect; inactive means no such curve, though single readings can be large or run the other way; tested in A549 cells; also: nearly all actives have a fitted effect of over 30% in size; inactives centre near -10
Vaccinia mCherry: qHTS for Stage-Specific Inhibitors of Vaccinia Orthopoxvirus: mCherry Reporter Primary qHTS; 0.63% of 310,000 active; Potency, µM (series often up to 36.5 µM), without a hit: top-dose activity change, negative = inhibition, most hits filed as inhibitors; Vaccinia virus mCherry reporter infection, fluorescence; about a quarter of the inactives have no number; AID 720579, 2013; active = well fitted inhibition curve with a large enough effect; inconclusive = small, poorly fitted or top-dose-only effect; inactive = no such curve, though single readings can be large or run the other way; tested in A549 cells; also: nearly all actives have a fitted effect of over 35% in size; inactives centre near -10
The depositor's hits bear a star; i = inactive; ? = inconclusive; · = not tested or not shown; [ ] = remark or other dose. % is scaled to controls: 0 for no effect and ±100 for the full control effect; potency is read from the fitted curve at half-maximal effect. Random draw from the library. About 0.87% of those tested had a hit in this group.

SMILES	Vaccinia Venus	Vaccinia mCherry
CCn1c(COc2cccc(C)c2)nnc1SCC(=O)Nc1cccc(C(=O)OC)c1	-22%	·
COc1ccc(C(=O)OCC(=O)c2ccco2)cc1[N+](=O)[O-]	-17%	i
CC(=O)N(C)c1ccc(NS(=O)(=O)c2cc(Cl)ccc2Cl)cc1	-5%	-5%
Cc1cccc(CNC(=O)CCCN2C(=O)CCn3nc(-c4cn(C)c5ccccc45)cc32)c1	-21%	-21%
Cc1sc2ncnc(SCC(=O)N(C(C)C)C(C)C)c2c1C	-11%	i
COc1cc(/C=N/NC(=O)c2ccccn2)ccc1OC(=O)c1ccccc1Br	-25%	-25%
CCSc1nnc(-c2ccc(OC)cc2)o1	-12%	·
COc1ccccc1NC(=O)CNC(=O)c1ccccc1	18%	·
CCCNC(=O)CN(c1ccc(F)cc1)S(=O)(=O)c1ccc2c(c1)OCCO2	-7%	0%
Cc1cccc(N=C2NC(=O)/C(=C/C=C/c3ccco3)S2)c1	-17%	?
Cc1ccc(Nc2cnn(C34CC5CC(CC(CC(=O)O)(C5)C3)C4)c(=O)c2Cl)cc1C	-5%	-8%
COc1ccccc1-c1cc(C(F)(F)F)nc(S(=O)(=O)CCCC(=O)NC(C)C)n1	-10%	-8%
O=C(Oc1cccc(OC(=O)N2CCCCC2)c1)N1CCCCC1	-15%	i
CC(C(=O)NCC1(c2ccccc2)CCOCC1)N1CCOCC1 (configuration not stated)	1%	-12%
CCc1onc(C)c1C(=O)Nc1cc(C)ccc1OC	-12%	·
CCOC(=O)N1CCN(C(=O)c2ccc3oc(CCCc4ccccc4)nc3c2)CC1	-8%	i
CCOc1ccccc1N(C)C(=O)c1sc2ncn(CC(=O)N3CCCCC3C)c(=O)c2c1C (configuration not stated)	-14%	-23%
Cc1noc(C)c1CSc1nc2ccccc2c(=O)n1-c1ccc(F)cc1F	?	·
c1ccc2c(CCN3CCCCC3)c[nH]c2c1	6%	5%
Cc1ccc(Cl)cc1NC(=O)CSc1nccn1C	-3%	-14%
O=S(=O)(c1ccccc1Br)N1CCC(O)(c2cccnc2)CC1	-4%	i
COc1ccc(OC2C(=O)N(Cc3ccc4c(c3)OCO4)C2c2cccs2)cc1 (configuration not stated)	-26%	-12%
O=S(=O)(Nc1cccc(-c2cn3c(n2)SCC3)c1)c1cccs1	-16%	i
CCn1c(SCC(=O)NNC(=S)Nc2ccccc2)nnc1-c1ccc(Cl)cc1	-9%	-14%
COc1ccc(CN(CC(=O)NCc2ccco2)C(=O)CCC(=O)Nc2nccs2)cc1	-18%	·

Following part.
SMILES	Vaccinia Venus	Vaccinia mCherry
CC(C)CN(C(=O)c1cccc(S(=O)(=O)N2CCN(C)CC2)c1)C1CCS(=O)(=O)C1 (configuration not stated)	-11%	-14%
COc1ccc(/C=N/NC(=O)c2ccc(-c3ccccc3)cc2)cc1O	-23%	-24%
COc1ccc(S(=O)(=O)Nc2ccc3oc4ncccc4c(=O)c3c2)cc1OC	-13%	i
COC(=O)CCN(C(=O)C1CCN(S(=O)(=O)c2c(C)noc2/C=C/c2ccccc2F)CC1)c1ccccc1	-10%[7.34 µM]	-8%[7.34 µM]
CCOC(=O)c1cc2sccc2n1CC(=O)O	-12%	i
COc1ccc(-c2cc(C(F)(F)F)nc(SCCC(=O)N3CCN(C)CC3)n2)cc1	-2%	-6%
Cc1ccc(-n2ncc3c(NNC(=O)c4ccccc4C)ncnc32)cc1	0%	-8%
CCOC(=O)C1=CN(Cc2cccc(F)c2)S(=O)(=O)N(CC)C1CCc1ccccc1 (configuration not stated)	0%	-13%
COc1cc(C(=O)Nc2ccc(S(=O)(=O)Nc3nccc(C)n3)cc2)c([N+](=O)[O-])cc1OC	1%	22%
CCN(CC)c1ccc(NC(=O)c2cc(S(=O)(=O)N3CCc4ccccc43)cn2C)c(C)c1	-8%	-13%
CC(C)(C)c1ccc(C(=O)NC(=S)Nc2nc3c(s2)CCCC3)cc1	-21%	-7%
CCN(CC)C1CC(=O)N(c2ccc(Br)cc2)C1=O (configuration not stated)	3%	i
COc1cccc(C(C(=O)NC2CCCC2)N2CCN(c3cc(C)nc4ccccc34)CC2)c1OC (configuration not stated)	-25%	9%
COc1nnc(-c2ccc(N3CCCCC3)c(NC(=O)c3ccccc3Cl)c2)c2ccccc12	-16%[7.34 µM]	-14%[7.34 µM]
Cc1cc(NC(=O)CSc2nnc(C3CC3)n2N)c([N+](=O)[O-])cc1C	-13%	i
COc1cc(CNCCc2ccccc2F)ccc1OCc1ccc(Cl)nc1	-28%	-2%[1.46 µM]
O=C1OCc2cc(NS(=O)(=O)c3cccs3)ccc21	-5%	-12%
CCCn1c2ccccc2c2cnn(CC(=O)NC(C)CC)c(=O)c21 (configuration not stated)	-14%	i
O=C1NCN(c2ccccc2)C12CCN(C(CCc1ccccc1)c1nnnn1C1CCCC1)CC2 (configuration not stated)	-11%	-2%
COc1ccccc1CNC(=O)CCC1N=C2c3ccccc3N=C(SCc3ccc(C)cc3C)N2C1=O (configuration not stated)	?	?
CC1(C)CC(NC(=O)c2cccc([N+](=O)[O-])c2)CC(C)(C)N1	-9%	-10%
COc1cc(C=O)ccc1OCc1cccc(Br)c1	-8%	-12%
COc1ccc(CC(=O)NCc2ccc3c(c2)CCN3C(=O)c2ccc(C)cc2)cc1OC	-17%	-22%
O=C(C1CC(=O)N(c2ccc3c(c2)OCCO3)C1)N1CCN(S(=O)(=O)c2ccccc2F)CC1 (configuration not stated)	-16%	6%
O=c1[nH]c(=S)n(Cc2ccc(F)cc2)c(O)c1C=NCc1ccc2c(c1)OCO2	8%	-5%

Following part
SMILES	Vaccinia Venus	Vaccinia mCherry
CCOc1ccccc1NC(=O)Cn1cnc2c1c(=O)n(C)c(=O)n2C	-11%	-6%
Cc1c(C(=O)N2CCOCC2)oc2c1-c1nn(CC(=O)NCc3cccc(Cl)c3)cc1CC2	-16%	-20%
COc1cc(/C=C2\SC(=O)N(CC(=O)Nc3cccc(C)c3)C2=O)ccc1OC(C)C(=O)O (configuration not stated)	-15%	-22%
CCCN(Cc1cccs1)C(=O)Nc1cc(C)ccc1OC	-5%	-8%
CCCCn1c(N)c(N(CC(C)C)C(=O)c2ccc(N3C(=O)c4ccccc4C3=O)cc2)c(=O)[nH]c1=O	-6%	-20%
c1ccc(CCN(Cc2ccccc2)C2CCN(C3CCCC3)CC2)cc1	-5%	-12%
O=C(NC1CCCC1)C(c1ccc(F)cc1)N(Cc1ccccc1)C(=O)c1csnn1 (configuration not stated)	1%	-11%
CC(O)c1cccc(NC(=O)CCC(=O)O)c1 (configuration not stated)	-5%	-15%
COc1cccc(C(=O)NCC(=O)OCC(=O)NC2CCCCC2)c1	-15%	i
N#Cc1c(C(F)(F)F)cc(-c2ccc(F)cc2)[nH]c1=O	-1%	i
Cc1ccc(-n2c(-c3cc(-c4ccco4)[nH]n3)n[nH]c2=S)c(Br)c1	-9%	-3%
CC1(c2nnc(-c3ccc(F)cc3)o2)CC(c2c(Cl)cccc2Cl)=NO1 (configuration not stated)	-25%	-10%
CC(C)C(C(=O)Nc1nccs1)c1ccc(Cl)cc1 (configuration not stated)	7%	-13%
O=C(c1ccc(Br)cc1)N1CCC(c2nc3ccccc3s2)CC1	-7%	-21%
CCCCNC(=O)c1nc(C2CCN(S(=O)(=O)c3ccc(Cl)cc3)CC2)oc1-c1ccccc1	-4%	-2%
CCOc1cc(NC(=S)NCc2ccco2)c(OCC)cc1NC(=O)CC(C)C	-6%	-7%
COc1cc2c(cc1NC(=O)C1CCCO1)oc1ccccc12 (configuration not stated)	-11%	-20%
NC(=O)c1ccc(Oc2ccc(C(N)=O)cc2)cc1	-19%	i
O=C(O)Cc1ccc2c(c1)Cc1cccnc1O2	-13%	i
CCCc1cc(=O)[nH]c2nnc(SCC(=O)NCc3ccc4c(c3)OCO4)n12	-8%	-15%
Cc1cc(C)nc(NS(=O)(=O)c2ccc(NC(=O)C3(c4ccc([N+](=O)[O-])cc4)CCCC3)cc2)n1	-18%	-23%
Cn1c(-c2ccncc2)nc2cc(C(=O)N3CCCC3c3nccs3)cc(NC(=O)C3CCC3)c21 (configuration not stated)	3%	-9%
O=C(Cc1csc(N2CCOCC2)n1)N/N=C/c1ccc(O)c(O)c1O	-10%	-11%
CCCCN(C(=O)c1ccc([N+](=O)[O-])s1)c1c(N)n(CC(C)C)c(=O)[nH]c1=O	-2%	-10%
CC(C)CC(=O)Nc1cccc(-c2cn3ccsc3n2)c1	-21%	·

Another view of part of the listing above:
Sequence of screens – Vaccinia Venus	Vaccinia mCherry
- COc1cccc(C(=O)NCC(=O)OCC(=O)NC2CCCCC2)c1
    -15%	i
- N#Cc1c(C(F)(F)F)cc(-c2ccc(F)cc2)[nH]c1=O
    -1%	i
- Cc1ccc(-n2c(-c3cc(-c4ccco4)[nH]n3)n[nH]c2=S)c(Br)c1
    -9%	-3%
- CC1(c2nnc(-c3ccc(F)cc3)o2)CC(c2c(Cl)cccc2Cl)=NO1 (configuration not stated)
    -25%	-10%
- CC(C)C(C(=O)Nc1nccs1)c1ccc(Cl)cc1 (configuration not stated)
    7%	-13%

Compound profiles, as listed above.
Cn1c(-c2ccncc2)nc2cc(C(=O)N3CCCC3c3nccs3)cc(NC(=O)C3CCC3)c21 (configuration not stated) is listed with Vaccinia Venus: 3%; Vaccinia mCherry: -9%
CC1(c2nnc(-c3ccc(F)cc3)o2)CC(c2c(Cl)cccc2Cl)=NO1 (configuration not stated) is listed with Vaccinia Venus: -25%; Vaccinia mCherry: -10%

Reprinted at random: four entries already listed, in no set order.
SMILES	Vaccinia Venus	Vaccinia mCherry
O=C(NC1CCCC1)C(c1ccc(F)cc1)N(Cc1ccccc1)C(=O)c1csnn1 (configuration not stated)	1%	-11%
CC(O)c1cccc(NC(=O)CCC(=O)O)c1 (configuration not stated)	-5%	-15%
Cc1c(C(=O)N2CCOCC2)oc2c1-c1nn(CC(=O)NCc3cccc(Cl)c3)cc1CC2	-16%	-20%
CC(C)CC(=O)Nc1cccc(-c2cn3ccsc3n2)c1	-21%	·

(list continues)
SMILES	Vaccinia Venus	Vaccinia mCherry
Cc1nc(N2CCN(c3ccccc3O)CC2)c2c(-c3ccccc3)csc2n1	-5%	?
CCOC(=O)c1ccc(N2C(=O)c3n[nH]c(C)c3C2c2ccccc2OC)cc1 (configuration not stated)	-1%	-6%
O=C(Cc1c(O)c2ccccc2oc1=O)c1ccc(C(F)(F)F)cc1	-3%	i
O=C(CCC(=O)Nc1ccc(F)cc1)N/N=C/c1cccnc1	13%	-3%
CC(C)CCNC(=O)NC(=O)CSc1ncccn1	-5%	i
O=C(CCNS(=O)(=O)c1ccc(Cl)cc1)NCc1cccs1	-13%	i
COc1cc(C(C(=O)NC(C)(C)C)N(C(=O)CNC(=O)c2cccs2)c2cccnc2)cc(OC)c1OC (configuration not stated)	-6%	-12%
O=C(/C=C/c1ccc(F)cc1)NCCc1ccc2c(c1)OCCO2	2%	-12%
Cc1ccc(S(=O)(=O)N2C[C@@H](C)[C@]3(C2)[C@H](O)[C@H](OC(=O)NCc2ccco2)C[C@H]2C(=O)N(c4ccccc4)C(=O)[C@H]23)cc1	-9%	i
O=C(O)c1ccc(NC(=S)NC(=O)c2ccc(-c3ccccc3)cc2)cc1	-4%	-11%
CCN(CC)CCP(=O)(c1ccccc1)c1ccccc1	-7%	-12%
CN(N=Cc1ccccc1O)c1ccc2ccccc2n1	-25%	-13%
O=C(NCc1cn2ccsc2n1)c1c(F)cccc1Cl	3%	-11%
Cc1ccc(NC(=O)c2cc(S(=O)(=O)c3ccccc3)ccc2Cl)cc1	?	·
COC(=O)C1=C(c2ccc(F)cc2OCc2ccccc2)C[C@@H]2CC[C@H]1N2C(=O)N1CCCC1	-26%	i
CCOC1=C2[C@@H](CN(S(=O)(=O)c3ccc(C)cc3)[C@H]2c2cccs2)[C@H]2C(=O)N(c3ccccc3)C(=O)[C@H]2C1	-14%	-5%
O=C1CS(=O)(=O)N(Cc2ccc(F)cc2)c2ccccc21	-4%	i
CCSc1ccc(-c2cc(NC=O)c3ncc(-c4cc(OC)c(OC)c(OC)c4)n3c2)cc1	-22%	?
Cc1ccc(NC(=O)/C=C/c2ccc(C)o2)c(C)c1	-11%	-9%
CNC(=S)N1CCN(c2ccc(Cl)c(Cl)c2)CC1	-18%	-13%
O=C(CNc1ccccc1F)N/N=C/C1CC=CCC1 (configuration not stated)	-8%	i
CCCCCCSc1ccc([C@@H]2[C@H]3C(=O)N(CC)C(=O)[C@H]3[C@]3(C(=O)OC)CCCCN23)cc1	-18%	-15%
Cc1ccc(C(=O)NCCC(=O)N2CCC3(CC2)NCCc2[nH]cnc23)cc1	-9%	i
CCOC(=O)c1nnc2c(-c3ccc(OC)cc3)c(C)nn2c1N	-19%	-19%
CS(=O)(=O)N1CCC(C(=O)Nc2ccc(F)c(Cl)c2)CC1	-9%	-14%

The listing continues:
SMILES	Vaccinia Venus	Vaccinia mCherry
O=C(Nc1ccccc1NS(=O)(=O)c1ccc(F)cc1)C1CCCC1	-18%	-6%
CC1CCCN(Cc2c(O)ccc3c(=O)c(-c4ccc(Cl)cc4)c(C(F)(F)F)oc23)C1 (configuration not stated)	1%	-1%
C/C(=C\c1ccccc1)CN1CCN(C(C)C)C(CCO)C1 (configuration not stated)	-17%	-5%
N/C(=N\S(=O)(=O)c1ccccc1)c1ccc([N+](=O)[O-])cc1	-10%	-11%
CSc1nnc(-c2ccc(S(=O)(=O)N3CCCC3)cc2)n1C	-3%	-9%
COc1ccc(OCC(O)Cn2ccnc2C)cc1 (configuration not stated)	0%	-5%
O=C(NCc1ccccc1C(F)(F)F)C1CC(c2ccc(C(F)(F)F)cc2)=NO1 (configuration not stated)	-7%	i
